Insulin prom inh – TRM-6 insulin promoter activity inhibition; inhibition, % at 2 µM; TRM-6 cells (human fetal islet line), insulin promoter-eGFP reporter, imaging; reporter expression induced with tamoxifen; 130,000 tested, 0.9% active; AID 1273;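 active = inhibition above the mean plus 3 SD, with well images judged a real hit on visual review, cut at about 60% in these data, passing the limit was not always enough; inconclusive = inhibition over the cutoff but images rejected on review; inactive = inhibition not above the cutoff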
RGS16-Gao – regulators of human RGS16-Galphao interaction; O15492+P09471; bead-based flow cytometry RGS16-Galphao binding, fluorescence; actives lie on both sides; binding response (% of control), % at 10 µM; 220,000 tested, 0.38% active;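 active = below 25% or above 175%, edge rows of some plates excepted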;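 note: Galphao activated by GDP with aluminum fluoride before binding; 100% = wells without compound and 0% = beads without RGS; some results beyond the cut were filed as inactive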
HSV augment – increases HSV replication in cells | HSV replication augmentation in cells, fold increase | maximum fold increase | 220,000 tested, 0.005% active;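 active = peak rise of 1.5-fold or more in the series; inconclusive = self-fluorescent or not available for retest; tested in PC3 cells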;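 note: first round at 10 µM; read as green reporter fluorescence; hits show the peak of a series up to 25 µM; 1 = signal of infected wells without compound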
GALR2 agonist – activates the human galanin receptor 2; O43603; GALR2-expressing cells, agonist activation read-out; activation, %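 (tested at 5 µM)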; 140,000 tested, 0.48% active;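 active = above mean plus 3 SD of all compounds, about 5% in these data, not always enough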;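 note: 0% = vehicle buffer wells and 100% = reference agonist at full effect; tested in CHO reporter cells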
PKD1 inh – PKD1 (human) kinase inhibition; Q15139; PKD1 kinase fluorescence polarization assay; inhibition, %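 (about 10 µM by stock and volumes)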; 200,000 tested, 0.056% active; AID 797;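 active = inhibition of 50% or more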;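 note: controls were vehicle for no effect and a reference inhibitor for full effect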
Target sequence (Q15139 whole entry, looked up): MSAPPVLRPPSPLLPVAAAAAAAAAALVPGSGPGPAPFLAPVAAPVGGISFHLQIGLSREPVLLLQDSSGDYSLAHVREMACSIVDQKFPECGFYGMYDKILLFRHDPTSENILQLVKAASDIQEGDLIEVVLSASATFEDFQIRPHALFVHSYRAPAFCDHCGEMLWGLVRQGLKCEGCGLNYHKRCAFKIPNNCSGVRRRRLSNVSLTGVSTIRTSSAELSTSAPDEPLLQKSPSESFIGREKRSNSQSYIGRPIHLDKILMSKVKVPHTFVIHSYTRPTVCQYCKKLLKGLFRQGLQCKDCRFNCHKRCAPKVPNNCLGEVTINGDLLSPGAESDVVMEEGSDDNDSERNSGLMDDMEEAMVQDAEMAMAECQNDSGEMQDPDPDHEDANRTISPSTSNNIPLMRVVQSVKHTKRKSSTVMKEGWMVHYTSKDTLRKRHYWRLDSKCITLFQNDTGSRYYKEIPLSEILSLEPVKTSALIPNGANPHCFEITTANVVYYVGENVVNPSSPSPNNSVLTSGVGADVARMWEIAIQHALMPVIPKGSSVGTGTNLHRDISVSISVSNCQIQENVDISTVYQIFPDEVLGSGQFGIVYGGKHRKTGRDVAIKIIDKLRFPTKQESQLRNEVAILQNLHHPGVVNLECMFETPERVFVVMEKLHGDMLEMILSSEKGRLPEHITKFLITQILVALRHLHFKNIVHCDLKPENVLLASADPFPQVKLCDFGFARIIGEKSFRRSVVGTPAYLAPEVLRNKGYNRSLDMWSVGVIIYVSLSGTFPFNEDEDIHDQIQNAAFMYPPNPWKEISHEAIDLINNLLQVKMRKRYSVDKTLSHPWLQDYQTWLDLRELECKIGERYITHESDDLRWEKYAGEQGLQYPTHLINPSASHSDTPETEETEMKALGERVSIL
Insulin prom inh cell count – second read-out of Insulin prom inh, no call of its own (marks repeat the call); normalized cell count, %; measured here: cell count, toxicity; reference of the scale not given here;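 cells exposed to compound for 48 h; stained nuclei by imaging scaled within each plate; lower means fewer cells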
HSV augment primary fold – further read-out of HSV augment, marked with its call; fold increase; compound at 10 µM; measured here: primary screen fold increase 10 uM; tested in PC3 cells;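 GFP signal in the first replicate; 1 = infected wells without compound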
Active calls of the source: *; i = inactive; u = inconclusive; x = not tested or not shown.

entry	Molecule	Insulin prom inh	Insulin prom inh cell count	RGS16-Gao	HSV augment	HSV augment primary fold	GALR2 agonist	PKD1 inh
1	C/C(=N\NC(=O)CSCc1cccc(Br)c1)c1ccc([N+](=O)[O-])cc1	26	41	101	i	1	0.2	0
2	CCN(CC)C(=O)CSc1nc(C)cc(-c2cccs2)c1C#N	43	115	115	i	1.1	0.2	-1
3	O/N=C1\CCCc2oc3c(c21)CCCC3	53	61	107	i	0.78	-2.2	2
4	N/C(=N\OC(=O)CCCc1ccccc1)c1cccc([N+](=O)[O-])c1	-267	72	40	x	x	-0.3	-2
5	COc1cc(C2NC(=O)NC(c3ccccc3)=C2C(C)=O)cc(Cl)c1OCC(=O)O (stereo not drawn)	-71	124	140	i	0.94	x	5
6	COc1cc(N2CCCC2)c(OC)cc1/C=C(/C#N)c1ccc(F)cc1	-26	127	104	u	x	-4.1	-1
7	CN(C)c1ccc(/C=C/c2nc3ccccc3s2)cc1	-17	125	103	x	x	20*	-5
8	COCCn1c(=O)[nH]c2cc(C(=O)NCc3ccccc3)ccc2c1=O	-22	67	102	i	0.9	-2.4	-1
9	CCc1cccc(C)c1NC(=O)C(c1ccccc1)N1CCC1=O (stereo not drawn)	x	x	94	i	1.1	-3.3	-5
10	Cc1cc(C)cc(Oc2ccc(C(F)(F)F)cc2C#N)c1	17	80	74	i	1.1	-2.9	3
11	CN(C)c1ccc(C(CC(=O)O)C(=O)O)cc1 (stereo not drawn)	x	x	88	i	0.99	x	6
12	CCC(C)[C@H]1CNC(=S)N1CCC12CC3CC(CC(C3)C1)C2 (stereo partly drawn)	x	x	100	i	0.75	x	x
13	Cc1cc(NC(=O)CSCc2ccc([N+](=O)[O-])cc2)no1	x	x	100	i	1	x	-7
14	COc1ccc(CNC(=O)C(C#N)c2nc3ccccc3nc2N2CCN(C)CC2)cc1 (stereo not drawn)	-15	114	98	i	0.88	-0.7	0
15	O=C(COc1ccccc1)N1CCNC1=O	-36	97	96	i	1.1	-2.6	-5
16	O=C1NC2(Nc3ccccc31)C(=O)Nc1ccccc12 (stereo not drawn)	25	103	88	i	1	-1.6	-1
17	CC(=O)c1ncnn1CC(=O)c1ccc(Cl)cc1Cl	26	118	96	i	1	-2.0	-7
18	FC(F)(F)c1ccc(CN2C[C@@H]3C(c4ccc(Cl)nc4)C4(c5cccnc5)CC3(C4)[C@H]2c2ccccc2)cc1 (stereo partly drawn)	x	x	102	i	0.91	x	x
19	CCC(=O)Nc1nc2ccccc2n1CCN1CCOCC1	16	132	115	x	x	-2.4	-9
20	Cc1nc(N2CCCCC2C)c2c(C)c(C(=O)Nc3ccccc3C(F)(F)F)sc2n1 (stereo not drawn)	-29	99	110	i	1	x	-1

An excerpt of these results, field by field.
(2) CCN(CC)C(=O)CSc1nc(C)cc(-c2cccs2)c1C#N
  Insulin prom inh = 43 | Insulin prom inh cell count = 115 | RGS16-Gao = 115 | HSV augment = i | HSV augment primary fold = 1.1 | GALR2 agonist = 0.2 | PKD1 inh = -1
(3) O/N=C1\CCCc2oc3c(c21)CCCC3
  Insulin prom inh = 53 | Insulin prom inh cell count = 61 | RGS16-Gao = 107 | HSV augment = i | HSV augment primary fold = 0.78 | GALR2 agonist = -2.2 | PKD1 inh = 2
(4) N/C(=N\OC(=O)CCCc1ccccc1)c1cccc([N+](=O)[O-])c1
  Insulin prom inh = -267 | Insulin prom inh cell count = 72 | RGS16-Gao = 40 | HSV augment = x | HSV augment primary fold = x | GALR2 agonist = -0.3 | PKD1 inh = -2

Later entries
entry	Molecule	Insulin prom inh	Insulin prom inh cell count	RGS16-Gao	HSV augment	HSV augment primary fold	GALR2 agonist	PKD1 inh
21	C=C(C)CC(c1ccccc1)N(C(C)=O)c1ccco1 (stereo not drawn)	-16	106	98	i	1.1	x	-2
22	COc1cccc(C(=O)N(CN2CCCC2=O)c2ccccc2OC)c1	x	x	103	i	0.79	-0.8	-3
23	CCC(=O)N1CCc2cc(Br)cc(S(=O)(=O)CCC(=O)NCCOC)c21	0	62	98	i	0.95	-4.5	-1
24	CC1=C(C(=O)OCc2ccccc2)C(c2cccs2)NC(=O)N1CCCC(=O)O (stereo not drawn)	30	110	107	i	1.3	0.1	-9
25	CN(C)CCN(Cc1ccco1)C(=O)c1cc2c(Cl)nc3ccccc3c2s1	31	114	99	x	x	x	-5
26	CC(C)COc1ccc(C(=O)Nc2ccccc2[N+](=O)[O-])cc1	8	107	101	i	0.96	-2.3	6
27	Cc1ccc(C)c(S(=O)(=O)N2CC(=O)N(CCc3ccccc3)C(=O)C2)c1	-33	109	108	i	1.1	0.3	13
28	CC(=O)NCCSC(=O)c1ccc(F)cc1	-19	105	103	x	x	-2.1	0
29	CCCC(CCC)C(=O)Nc1ccncc1	57	117	141	i	1.1	1.1	5
30	Cc1cc(C)c(C)c(C(=O)CSc2nnc(C)c(=O)[nH]2)c1C	3	99	107	i	0.91	-2.0	0
31	CCCCCC(=O)Nc1ccc(N2CCN(CC)CC2)c(Cl)c1	x	x	106	i	0.9	-0.8	-7
32	CCn1nnc(-c2ccccc2NC(=O)c2cnccn2)n1	-142	85	x	i	0.92	-0.7	-3
33	O=C(COC(=O)c1ccc(O)cc1)NCC1CCCO1 (stereo not drawn)	-20	124	99	i	1	x	-1
34	CCn1c(/C=N/NC(=O)c2ccc(OC)cc2)nc2ccccc21	-275	16	108	i	0.75	0.1	-10
35	CCCNC(=O)N1CCN(C(=O)NCCC)CC1	30	85	99	i	1	-1.4	-11
36	O=C(Cn1sc2ccccc2c1=O)NC12CC3CC(CC(C3)C1)C2	x	x	56	i	0.84	-3.2	-3
37	O=C(c1cccc(-n2cnnn2)c1)N1CCOCC1	-6	97	97	i	0.92	-1.8	2
38	CCNc1nc(OC)nc(SCC(=O)Nc2ccccc2)n1	x	x	98	i	0.79	x	-9
39	Cc1cc(N2CCC(C(=O)NC3CC3)CC2)nc(-c2ccccc2)n1	-36	138	107	i	1	-0.7	-6
40	Fc1cnc(N2CCN(c3ccccc3)CC2)nc1N1CCN(c2ccccc2)CC1	7	140	103	i	1	-1.7	-6

Remaining list, next part
entry	Molecule	Insulin prom inh	Insulin prom inh cell count	RGS16-Gao	HSV augment	HSV augment primary fold	GALR2 agonist	PKD1 inh
41	Cc1ccc(-c2cc(C(=O)NCc3cn(C)nc3C)c3cc(Br)ccc3n2)cc1	0	141	93	i	1.1	5.1*	-3
42	CC(C)C(=O)Nc1cccc(-c2nc3ccccc3o2)c1	43	147	100	i	1	-2.0	-2
43	Cn1c(=O)c2[nH]c(-c3ccccc3)c(O)c2n(C)c1=O	-10	121	105	u	x	0.7	-3
44	CCN(CC)CCNC(=S)Nc1ccc2nc(N3CCCC3)cc(C)c2c1	27	97	99	i	0.82	x	-3
45	CCCS(=O)(=O)N1CCC(C(=O)NCCc2ccc(OC)c(OC)c2)CC1	x	x	100	i	0.92	-2.8	1
46	O=C(Nc1ccc(F)cc1F)c1noc2c1CCC2	35	108	103	i	0.99	-0.9	-3
47	COc1ccc(C(=O)NC(=S)N2CCC(C)CC2)cc1	-23	106	105	i	0.84	0.8	-2
48	CCOc1ccc(C(=O)Nc2nnc(C(C)C)s2)cc1OCC	x	x	126	i	0.86	-1.9	-3
49	Cc1cccc(N(C(=O)c2sc(C)nc2C)C(C(=O)NCc2ccco2)c2ccccc2)c1 (stereo not drawn)	11	47	106	x	x	0.7	10
50	O=c1[nH]c(Cc2ccccn2)nc2scc(-c3ccc(Cl)cc3)c12	9	138	98	i	1.1	x	-3
51	O=C1CSC(c2cccnc2)N1Cc1cccnc1 (stereo not drawn)	x	x	95	i	1	x	x
52	CCOC(=O)C1CCN(C(=O)CCc2ccccc2)CC1	54	61	105	i	1	-0.6	-1
53	CCOC(=O)c1sc2ccc(S(=O)(=O)N3CCCCC3)cc2c1N	x	x	101	i	0.7	1.4	5
54	CC(=O)Nc1ccc(NC(=O)Cc2sc(-c3cccnc3)nc2-c2ccc(C)cc2)cc1	-35	126	102	i	0.85	x	16
55	O=C(c1cc(S(=O)(=O)N2CCC3(CC2)OCCO3)ccc1F)N1CCCCC1	-25	114	103	i	1	x	-2
56	COc1ccccc1C(=O)Oc1cc(C)[nH]c(=O)c1[N+](=O)[O-]	-43	54	106	i	1	x	0
57	CC(=O)Nc1c(O)nc(SC/C=C/CSc2nc(O)c(NC(C)=O)c(=O)[nH]2)[nH]c1=O	x	x	100	i	0.98	x	-2
58	O=S(=O)(c1ccc2ccccc2c1)N1C=CC(C(F)(F)F)=NCC1	-40	76	106	i	0.99	-0.3	-8
59	COc1ccc(N(CC(=O)Nc2ccc3c(c2)OCCO3)S(C)(=O)=O)c(OC)c1	-79	114	104	i	1.1	0.1	-16
60	CN(C)c1ccc(/C=N/NC(=O)c2ccccc2Cl)cc1	-12	89	101	i	0.75	0.5	4

Overlap with the part before: two entries, then new ones.
entry	Molecule	Insulin prom inh	Insulin prom inh cell count	RGS16-Gao	HSV augment	HSV augment primary fold	GALR2 agonist	PKD1 inh
59	COc1ccc(N(CC(=O)Nc2ccc3c(c2)OCCO3)S(C)(=O)=O)c(OC)c1	-79	114	104	i	1.1	0.1	-16
60	CN(C)c1ccc(/C=N/NC(=O)c2ccccc2Cl)cc1	-12	89	101	i	0.75	0.5	4
61	Cc1cc2cc(CNC(=S)NC3CCCCC3)ccc2[nH]1	-91	183	110	i	0.98	x	1
62	CCCn1c(Sc2nc3c(c(=O)[nH]c(=O)n3C)n2CCC)nc2c1c(=O)[nH]c(=O)n2C	-30	90	105	i	0.99	-2.5	6
63	O=C(NCc1ccccc1)c1cccnc1N1CCOCC1	59	122	69	i	0.96	-3.1	11
64	O=C(N/N=C/c1cccc2nccnc12)c1ccccc1O	x	x	97	i	0.64	x	x
65	O=C(NCCN1CCOCC1)c1cc2ccccc2o1	-8	90	105	i	0.88	1.4	1
66	CCCCN1C(=O)C(NC(=O)CC(C)C)(C(F)(F)F)C2=C1CC(C)(C)CC2=O (stereo not drawn)	x	x	103	i	0.82	-2.2	-4
67	O=C(CN1CCSC1=NCc1ccccc1)c1ccccc1	0	93	106	i	0.92	-0.2	8
68	Cc1cnc([N+](=O)[O-])n1CCOC(=O)NC(=O)c1c(F)cccc1F	13	100	104	i	1.1	x	2
69	CCOC(=O)Cc1c(C)nc2c(-c3ccc(Cl)cc3)cnn2c1C	x	x	110	i	0.99	x	9
70	CC(/C=N/n1cnnc1)=C\c1ccccc1	37	102	101	i	0.86	0.9	4
71	Cc1cc(OCC(=O)NCCCN2CCOCC2)cc(C)c1Cl	x	x	x	i	0.86	-1.8	4
72	S=C1NCCOCCOCCNC(=S)N2CCOCCOCCN1CCOCCOCC2	12	121	106	i	0.93	x	-9
73	COC(=O)c1ccc(NC(=S)Nc2ccc(O)cc2)cc1	x	x	100	i	1.1	x	-2
74	CSc1nccc(-c2sc(SC)c(C#N)c2-c2ccccc2)n1	x	x	102	i	1	x	x
75	CCCN1C(=O)/C(=C/c2ccc(N3CCOCC3)cc2)NC1=S	x	x	96	1.6*	1.9*	x	-6
76	COc1ccccc1-n1c(SCC(=O)N2CCOCC2)nc2cccnc21	x	x	101	i	0.96	x	2
77	COc1ccc(OCC(=O)O/N=C(\N)Cc2ccc(Cl)cc2Cl)cc1	-17	119	104	i	0.92	-0.9	-1
78	CC(C)(C)C(=O)N1CCn2c1nc1ccccc12	x	x	98	i	1	x	-6
79	Cn1cc(Cl)c(C(=O)OCC(=O)Nc2nc(-c3ccc(Br)cc3)cs2)n1	3	117	117	i	0.98	-1.4	-3
80	O=C(CCN1C(=O)c2ccccc2C1=O)Nc1cccc(S(=O)(=O)NC2=NCCC2)c1	-92	96	107	i	0.97	x	-2
